GIRK2 act – GIRK2 channel activation; P48051; HEK293-GIRK2 thallium flux, Thallos fluorescence; calls only for hits at 25 µM; actives 0.05% (n = 63,000); AID 1259325;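 active = among the strongest 0.2% of first-round signals and kept after retests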;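 note: first round at about 10 µM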
Target sequence (P48051 whole entry, looked up): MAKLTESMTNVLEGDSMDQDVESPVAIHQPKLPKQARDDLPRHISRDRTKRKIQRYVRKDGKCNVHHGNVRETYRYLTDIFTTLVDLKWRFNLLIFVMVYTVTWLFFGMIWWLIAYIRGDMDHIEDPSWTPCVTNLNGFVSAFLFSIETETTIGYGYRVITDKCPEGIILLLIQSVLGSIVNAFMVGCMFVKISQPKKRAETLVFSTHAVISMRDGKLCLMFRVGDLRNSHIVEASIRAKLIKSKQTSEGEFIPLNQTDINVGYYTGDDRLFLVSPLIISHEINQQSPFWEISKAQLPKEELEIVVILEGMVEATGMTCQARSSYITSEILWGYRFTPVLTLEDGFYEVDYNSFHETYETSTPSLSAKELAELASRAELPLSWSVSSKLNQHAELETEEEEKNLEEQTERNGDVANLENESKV
Calls only; i = inactive. A portion of the library; count on the stated rates, not on these rows.

canonical_smiles,GIRK2 act
CCc1ccc(NC(=O)c2sccc2S(=O)(=O)N2CCN(c3ccccc3)CC2)cc1,i
CCCN1C(=O)CCc2cc(NC(=O)c3ccc4c(c3)OCO4)ccc21,i
CCOC(=O)c1c(NCc2ccc3c(c2)OCO3)c2cc(C)ccc2[nH]c1=O,i
CCCN(C)c1nccn2c(=O)n(CC(=O)Nc3ccc(C)c(F)c3)nc12,i
COC(=O)c1ccc(NC(=O)Cc2c(C)nc(SCc3ccccc3F)[nH]c2=O)cc1,i
O=C(Nc1ccc2c(c1)OCO2)N1CCC(CSc2ccccn2)CC1,i
COCCn1nnn(-c2ccc(NC(=O)CSCc3ccccc3)cc2)c1=O,i
CCN(Cc1ccccc1)S(=O)(=O)c1cc2c3c(c1)CCC(=O)N3CCC2,i
CCc1cccc(NC(=O)Cn2c(=O)nc(N3CCCCC3)c3ccccc32)c1,i
COc1ccc(-c2ccc(N3CCCC(C(=O)Nc4ccccn4)C3)nn2)cc1 (centres undefined),i
C=CCNC(=O)c1ccc(Cn2c(=S)[nH]c3cc4c(cc3c2=O)OCO4)cc1,i
Cc1ccc(NC(=O)Cn2ccn3nc(-c4ccc(C)cc4)cc3c2=O)cc1,i
COc1ccc(C(=O)N(CCCn2ccnc2)c2nc3cc(C)cc(C)c3s2)cc1OC,i
O=C(c1cccc(-n2cnnn2)c1)N1CCN(CCn2ccnc2)CC1,i
COc1ccc(OC)c(NC(=O)C23CCC(C)(C(=O)C2)C3(C)C)c1 (centres undefined),i
CC(=O)c1cccc(Nc2c(C(=O)N3CCCCCC3)cnc3nc(C)ccc23)c1,i
Cc1cc(C)cc(NC(=O)c2nnn(Cc3nc(-c4ccc(OC(C)C)cc4)oc3C)c2N)c1,i
CCOc1ccccc1C(=O)NCCc1nc2c(c(C(F)(F)F)n1)CCCC2,i
O=C(NC1CCCC1)C1CCN(c2ccc(-c3ccco3)nn2)CC1,i
COc1ccc(OCc2noc(CNC(=O)c3ccc4nsnc4c3)n2)cc1,i
O=C(Cn1cccn1)NCc1ccc(OCc2ccccc2)cc1,i
Cc1ccccc1NC(=O)C1=Cc2cc(Cl)ccc2OC=C1,i
COc1ccc(C(=O)Nc2ccc3c(c2)CCC(=O)N3)cc1OC,i
CCN(CC)S(=O)(=O)c1ccc(-c2nc(C#N)c(N3CCCC3)o2)cc1,i
Cc1ccc(C(=O)Nc2sc3c(c2-c2nc4ccccc4s2)CCN(C(C)C)C3)c(C)c1,i
COc1cc(OC)c(NC(=O)Cn2cnc3c(sc4ccccc43)c2=O)cc1Cl,i
O=C(NCc1cccnc1)c1ccc(OCc2ccc3ccccc3n2)cc1,i
CCOC(=O)N1CCN(C(=O)CN2CC(c3nc(-c4cccs4)no3)C2)CC1,i
O=C(NCC1CCN(C(=O)c2ccoc2)CC1)C(=O)Nc1ccc(F)c(Cl)c1,i
CNC(=O)C(=O)NCC1OCCCN1S(=O)(=O)c1ccccc1 (centres undefined),i
O=C(c1ccc(S(=O)(=O)N2CCCC2)cc1)N1CCC(COCc2ccc(F)cc2)CC1,i
COc1ccccc1NC(=O)CN1CCN(c2ccc(F)cc2)C1=O,i
CCCOC(=O)CCC(=O)NC(=S)Nc1nccs1,i
O=C(C1CC=CCC1)N1CCN(CCn2ccnc2-c2ccccc2)CC1 (centres undefined),i
Cc1cc(C)c(S(=O)(=O)NCCC(=O)Nc2ccccc2)cc1N(C)S(C)(=O)=O,i
CCN1CCN(CCCNC(=O)C(=O)c2c[nH]c3ccccc23)CC1,i
CCC(C)NC(=O)c1nnn(-c2ccc(Br)cc2)n1 (centres undefined),i
CCN1CCN(CC(=O)NCCc2ccc(OC)c(OC)c2)C(=O)C1=O,i
Cc1cn2c3c(=O)n(C)c(=O)n(C)c3nc2n1CCN1CCN(Cc2ccccc2Cl)CC1,i
Cc1ccc2c(Nc3ccc(C(C)C)cc3)c(C(=O)N3CCOCC3)cnc2n1,i
COC(=O)c1ccc(NC(=O)c2ccc(-n3ccnc3C)nn2)cc1,i
CCOc1ccc(-c2csc3c(=O)n(Cc4cccc(OC)c4)cnc23)cc1OCC,i
Cc1cc(=O)n2c(-c3cccc(NC(=O)c4ccccc4C(F)(F)F)c3)csc2n1,i
CCCCn1c(SCC(=O)Nc2ccc3c(c2)OCO3)nc2c(sc3ncccc32)c1=O,i
Cc1cc(C)cc(-n2c(C)c(C)n3c4c(=O)n(CCN5CCOCC5)c(=O)n(C)c4nc23)c1,i
Nc1c2c(nc3c1CCC3)CCCC2,i
COc1cccc(Nc2n[nH]nc2C(=O)Nc2ccccc2Br)c1,i
N#C/C(C(=O)NCc1ccco1)=C1/N=C(NC(=O)c2cccs2)c2ccccc21,i
COC(=O)Cn1c(=O)c2c(nc3n2CC(C)CN3c2cccc(OC)c2)n(C)c1=O (centres undefined),i
O=C1Cc2cc(NC(=O)c3ccc(Cl)s3)ccc2N1,i
CC1CN(CCOc2ccc(-c3[nH]ncc3-c3ccccc3)c(O)c2)CC(C)O1 (centres undefined),i
O=C(c1ccccc1Cl)N1CCN(Cc2nc(-c3ccc(F)cc3)cs2)CC1,i
COc1ccc(NC(=O)c2ccc(S(=O)(=O)N(Cc3ccccc3)C(C)C)cc2)cc1,i
O=S(=O)(c1cccc(Cl)c1)N1CC(c2nc(C3CC3)no2)C1,i
CCn1cc(C(=O)NCc2ccco2)c(=O)c2cc(OC)ccc21,i
Cc1cccc(C)c1OCC(C)N (centres undefined),i
O=C(Cn1cnc2c(c1=O)CCCC2)NCCCc1ccccc1,i
CCOCC(=O)Nc1ccc(-n2nnc(C(=O)NC3CC3)n2)cc1,i
CCOc1ccc(NC(=O)COc2coc(CSc3nncn3C)cc2=O)cc1,i
COc1cc(C(=O)N2CCN(Cc3nc(C)cs3)CC2)cc(OC)c1OC,i

Following part
Structure,GIRK2 act
O=C(NCCN1CCN(c2ccccc2F)CC1)c1cccc2ccccc12,i
O=C(CN1CCC(c2nnc(-c3ccc(F)cc3)o2)CC1)NCc1ccco1,i
COc1ccc(/C=C2\Oc3cc(OC(=O)c4cccc([N+](=O)[O-])c4)ccc3C2=O)c(OC)c1OC,i
CCCn1c(Br)nc2c1c(=O)n(CC)c(=O)n2C,i
COc1ccc(CCNC(=O)CN2CCN(Cc3nc4ccccc4[nH]3)CC2)cc1OC,i
COC(=O)c1ccccc1NC(=O)c1nnn(-c2ccccc2)c1-c1ccccn1,i
O=S(=O)(NCCOc1ccccc1)c1ccccc1Cl,i
COc1ccc(NC(=O)C(=O)NCCC(c2ccccc2)c2ccccc2)cc1OC,i
O=C(NCCCn1ncccc1=O)Nc1ccc(F)c(Cl)c1,i
CC(O)(CNC(=O)C(=O)NCCc1ccccc1)c1ccco1 (centres undefined),i
CCCCC[C@@H](O)[C@H]1C(=O)O[C@H](C)[C@@H](O)/C=C/C=C/C=C/C=C/C=C(\C)[C@@H](O)C[C@H](O)C[C@H](O)C[C@H](O)C[C@H](O)C[C@H](O)C[C@@H]1O,i
CS(=O)(=O)NCC1CCC(C(=O)NCCC(c2ccccc2)c2ccccc2)CC1 (centres undefined),i
Cc1cc(=O)[nH]c(-n2nc(C3CC3)cc2NC(=O)C2c3ccccc3Oc3ccccc32)n1,i
Cc1ccc(S(=O)(=O)c2nc(S(=O)(=O)C3CCCCC3)sc2N(C)C)cc1,i
O=C(c1ccccc1C(F)(F)F)N1CCCC(c2nnc(-c3cccs3)o2)C1 (centres undefined),i
CCCCC[C@@H](O)/C=C/[C@H]1C=CC(=O)[C@@H]1CCCCCCC(=O)C(=O)O,i
CCOC(=O)N1CCN(C(=O)c2ccc3nsnc3c2)CC1,i
Cc1cc(C)c(NC(=O)CSc2nccnc2-n2nc(C)cc2C)c(C)c1,i
CCc1ccc(S(=O)(=O)N2CCN(c3ccc(-n4cccc4)nn3)CC2)cc1,i
Cc1cn2c3c(=O)n(C/C=C/c4ccccc4)c(=O)n(C)c3nc2n1CCCl,i
CCc1cccc(NC(=O)Cn2cccc(-c3nc(-c4ccc(Cl)cc4)no3)c2=O)c1,i
CC12CC3CC(C1)CC(C(=O)O)(C3)C2,i
COc1cc(C2NC(=O)NC(O)(C(F)(F)F)C2C(C)=O)cc(OC)c1OC (centres undefined),i
O=C(Cc1ccccc1)Nn1c(SCc2cccc(Cl)c2)nc2ccccc2c1=O,i
O=C(CSC1CCCC1)Nc1cc(-n2cncn2)ncn1,i
CCC(C)n1c(C)c(C)n2c3c(=O)n(CCN4CCOCC4)c(=O)n(C)c3nc12 (centres undefined),i
COC(=O)N1CCN(CCNC(=O)c2ccccc2C(F)(F)F)CC1,i
COc1ccc(S(=O)(=O)N2CCCCC2CC(=O)NCc2c(F)cccc2F)cc1 (centres undefined),i
NS(=O)(=O)c1ccc(CCNC(=O)CCC2NC(=O)c3ccccc3NC2=O)cc1 (centres undefined),i
COc1ccc(S(=O)(=O)c2c(C)cc(C)n(CC(=O)Nc3ccc(C(C)=O)cc3)c2=O)cc1OC,i

Rewritten as labelled records: 4 of the compounds above.
CCCOC(=O)CCC(=O)NC(=S)Nc1nccs1
  GIRK2 act: i

O=C(C1CC=CCC1)N1CCN(CCn2ccnc2-c2ccccc2)CC1 (centres undefined)
  GIRK2 act: i

Cc1cc(C)c(S(=O)(=O)NCCC(=O)Nc2ccccc2)cc1N(C)S(C)(=O)=O
  GIRK2 act: i

CCN1CCN(CCCNC(=O)C(=O)c2c[nH]c3ccccc23)CC1
  GIRK2 act: i

More records.
Structure,GIRK2 act
CC1(C)CC(n2cnc(-c3ccc(F)cc3)c2-c2ccnc(N)n2)CC(C)(C)N1,i
CN(C)CCNc1oc(-c2ccc(COc3ccccc3)o2)nc1C#N,i
Cc1ccc(NC(=O)CN2C(=O)C3(SCC(=O)N3c3ccc(F)cc3)c3ccccc32)c(C)c1 (centres undefined),i
CSc1cccc2sc(N(CCN(C)C)C(=O)c3ccc(C#N)cc3)nc12,i
COc1ccc(CNC(=O)/C(C#N)=C2\N=C(NC(=O)c3ccco3)c3ccccc32)cc1,i
COc1ccc(-c2csc(-n3nc(C)cc3NC(=O)c3ccc(OC(C)C)cc3)n2)cc1OC,i
COc1cccc(OC)c1C(=O)NCC(c1cccn1C)N1CCCC1 (centres undefined),i
CCOC(=O)Cn1c(=O)c2c(nc3n2CCCN3c2ccc(C)cc2)n(C)c1=O,i
O=C(CSc1nnc(Cn2ccc(=O)[nH]c2=O)o1)Nc1ccccc1C(=O)O,i
CCNC(=O)c1cn(-c2ccc(SCC(=O)Nc3ccc(Cl)cc3F)nn2)cn1,i
COc1ccc2cc(C(=O)NCC#CCOc3ccc4c(c3)OCO4)[nH]c2c1,i
Cn1c(=O)[nH]c(=O)c2c1nc(N1CCN(CC(N)=O)CC1)n2Cc1ccc(Cl)c(Cl)c1,i
O=C(Nc1sc2c(c1-c1nc3ccccc3s1)CCCC2)c1ccc(C(=O)c2ccccc2)cc1,i
Cc1cc2c(=O)n(C)c(SCc3cc(=O)[nH][nH]3)nc2s1,i
COc1ccc(NC(=O)C2CN(c3nc4c(OC)cccc4s3)C2)cc1OC,i

Another view of 3 compounds above:
> O=C(Nc1sc2c(c1-c1nc3ccccc3s1)CCCC2)c1ccc(C(=O)c2ccccc2)cc1
  GIRK2 act: i

> Cc1cc2c(=O)n(C)c(SCc3cc(=O)[nH][nH]3)nc2s1
  GIRK2 act: i

> COc1ccc(NC(=O)C2CN(c3nc4c(OC)cccc4s3)C2)cc1OC
  GIRK2 act: i

An excerpt of these results, field by field:
CSc1cccc2sc(N(CCN(C)C)C(=O)c3ccc(C#N)cc3)nc12
  GIRK2 act: i

COc1ccc(CNC(=O)/C(C#N)=C2\N=C(NC(=O)c3ccco3)c3ccccc32)cc1
  GIRK2 act: i

Next section:
Structure,GIRK2 act
CCOCCCn1c(C)cn2c3c(=O)n(CCCc4ccccc4)c(=O)n(C)c3nc12,i
CC1CCN(c2cc(NC(=O)c3cncc(Br)c3)ncn2)CC1,i
COc1ccc(S(=O)(=O)N2CCN(c3cc(Cl)ccc3Cl)CC2)c2ccccc12,i
CS(=O)(=O)c1cccc2sc(N3CCN(C(=O)c4cccs4)CC3)nc12,i
CCC(=O)N1CCN(C(=O)C(NC(=O)c2ccc(OC)cc2)S(=O)(=O)c2ccc(C)cc2)CC1 (centres undefined),i
Cc1cc2c(=O)n(Cc3ccco3)c(SCC(=O)c3ccc(F)cc3)nc2s1,i
CC(C)(C)S(=O)(=O)c1ccc2nn(CC(=O)Nc3ccc(Cl)cc3)c(=O)n2n1,i
CCOc1cc(-c2ccc(C)cc2)nc2ccc(C(=O)N3CCOCC3)cc12,i
COc1ccc(CNC(=O)CSc2nc3c(-c4ccccc4)csc3c(=O)n2C)cc1,i
O=C1CC(c2nc3ccccc3n2CC2CCCCC2)CN1CCc1ccccc1 (centres undefined),i
CNC(=O)C1CCC(Cn2c(=O)c3sccc3n(Cc3cc(C)ccc3C)c2=O)CC1 (centres undefined),i
Cc1cc(NC(=O)Cn2cc(-c3nc(-c4cnccn4)no3)ccc2=O)no1,i
COc1ccc(NC(=O)c2ccccc2C)cc1N1CCCCC1=O,i
COCCn1c(C)cc(C(=O)CSc2n[nH]c(N)n2)c1C,i
O=C(c1ccccc1)c1ccccc1C(=O)N1CCN(CCn2cccn2)CC1,i
O=C(Cn1cccc(-c2nc(-c3ccc(F)cc3)no2)c1=O)NCc1ccccc1Br,i
COc1ccc(-c2c(C)oc3cc(OS(C)(=O)=O)ccc3c2=O)cc1OC,i
COc1cc(C(=O)/C=C/c2ccc(C(=O)O)cc2)cc(OC)c1OC,i
COc1cccc(NC(=O)NCCCn2ccnc2-c2ccccc2)c1OC,i
Cn1c(C(F)(F)F)nn(CCNC(=O)NC23CC4CC(CC(C4)C2)C3)c1=O,i
O=C1CC(c2nc(-c3ccc(C(F)(F)F)cc3)no2)CN1c1ccc2c(c1)OCCO2 (centres undefined),i
COc1ccc(-c2cc3c(SCC(=O)Nc4ccccc4Cl)nccn3n2)cc1,i
O=C(CN1CC(c2nc(-c3cccnc3)no2)C1)NC1CC1,i
COCCN1CCC(CNC(=O)c2cc(-c3ccccc3)on2)CC1,i

High-throughput results as filed in PubChem BioAssay.
